Rce1 inhib = inhibitors of yeast Ras-converting enzyme; Q03530; calls only; 0.27% of 290,000 active; yeast membranes, quenched prenylated peptide cleavage fluorescence;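 active = fall in fluorescence gain of 50% or more versus controls, with final raw signal at or below 3038400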;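 note: plate controls were neutral control wells for no effect and wells lacking membranes for full effect; tested at 10 µM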
Target sequence (Q03530 whole entry, looked up): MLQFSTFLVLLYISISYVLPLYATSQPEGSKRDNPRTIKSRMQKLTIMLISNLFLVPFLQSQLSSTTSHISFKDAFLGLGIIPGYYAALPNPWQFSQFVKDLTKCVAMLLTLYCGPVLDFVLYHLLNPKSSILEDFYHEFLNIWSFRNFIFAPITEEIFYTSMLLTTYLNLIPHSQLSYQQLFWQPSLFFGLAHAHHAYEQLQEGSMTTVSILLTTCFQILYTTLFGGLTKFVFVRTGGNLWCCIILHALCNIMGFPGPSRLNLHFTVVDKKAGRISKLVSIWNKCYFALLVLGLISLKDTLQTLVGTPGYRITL
Yeast UUG start = modulators of start codon recognition fidelity in yeast | S. cerevisiae UUG-firefly luciferase reporter, luminescence/redox ratio | activity score, % at 18.7 µM | 0.13% of 350,000 active;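 active = replicate mean at a twofold rise or more, about +100% in these data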;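 note: firefly luciferase made from a UUG start codon reports start codon fidelity; reporter light over untreated wells divided by growth signal over untreated wells; some hits fall short of that in this replicate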
eIF4H FP inh = inhibitors of RNA binding by human eIF4H. Q15056. eIF4H fluorescence polarization binding assay. inhibition, % at 35 µM. 0.94% of 290,000 active;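 active = 50% or more with normal probe brightness, or confirmed in later tests; about a fifth of its hits are not listed in these tables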;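 note: calls also rest on retests at 20 µM and on dose response follow-up; 0% = protein and probe with vehicle and 100% = probe without protein; strong numbers were not always called active; many hits fall short of the cut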
HIV Env fusion = inhibitors of HIV Env-mediated cell fusion. 1.1% of 360,000 active. inhibition, % at 12.3 µM. HeLa-JRFL Env/CEM21 cell fusion, luciferase;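 active = mean replicate inhibition score of at least 50 and every replicate individually at or above 50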;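 note: 0% = plate neutral controls and 100% = maraviroc near 300 nM; one replicate is shown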
MT1-MMP act inh = blocks activation of human MT1-MMP | AID 651647 | HT1080 RFP-PRO-GFP cells, GFP/RFP ratio fluorescence, overnight; percent of plate control window, DMSO zero | 0.061% of 360,000 active | GFP/RFP ratio change, % at 20 µM | P50281;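 active = GFP/RFP ratio change of at least 30% with cell ATP level not reduced by more than half and red fluorescence within 50% of control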; note: strong numbers were not always called active
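Assay system: HT1080 RFP-PRO-GFP cells. Benchmarks: DMSO vehicle wells and RFP-L50D-GFP reporter cell wells. Times: overnight cell settling, then overnight compound exposure, 37 °C, 5% CO2. Compound: 20 µM single dose, 1% DMSO. Read-out basis: GFP/RFP fluorescence ratio.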
PABP FP inh = PABP-poly(A) binding inhibition. P11940. PABP-poly(A) RNA binding, fluorescence polarization. inhibition, % at 35 µM. 1% of 290,000 active. AID 2014;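 active = 50% or more with normal probe brightness, or confirmed in later tests; about a fifth of its hits are not listed in these tables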;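 note: calls also rest on retests at 20 µM and on dose response follow-up; controls were probe without protein and protein plus probe with vehicle; some compounds called inactive have numbers as strong as hits; many hits fall short of the cut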
Target sequence (P11940 whole entry, looked up): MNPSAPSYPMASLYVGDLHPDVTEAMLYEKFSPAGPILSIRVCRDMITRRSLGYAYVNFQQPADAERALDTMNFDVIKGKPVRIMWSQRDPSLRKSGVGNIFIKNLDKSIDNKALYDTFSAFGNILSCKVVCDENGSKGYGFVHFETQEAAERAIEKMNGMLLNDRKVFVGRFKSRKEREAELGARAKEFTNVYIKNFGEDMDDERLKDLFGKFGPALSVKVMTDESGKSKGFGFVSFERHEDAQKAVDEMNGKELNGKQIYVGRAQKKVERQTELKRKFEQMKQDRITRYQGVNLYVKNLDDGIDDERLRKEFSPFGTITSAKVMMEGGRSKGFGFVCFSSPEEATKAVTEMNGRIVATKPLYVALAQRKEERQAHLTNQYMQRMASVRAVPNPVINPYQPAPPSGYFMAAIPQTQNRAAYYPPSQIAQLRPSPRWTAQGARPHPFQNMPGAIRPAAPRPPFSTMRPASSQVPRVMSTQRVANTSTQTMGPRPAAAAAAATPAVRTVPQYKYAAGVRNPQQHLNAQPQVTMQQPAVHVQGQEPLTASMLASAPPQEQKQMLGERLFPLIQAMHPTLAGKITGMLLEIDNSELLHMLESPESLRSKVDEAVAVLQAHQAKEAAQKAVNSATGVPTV
CSC inhib = cancer stem cell inhibition | cancer stem cell-like cells viability, luminescence | inhibition, % at 7.5 µM | 1.1% of 300,000 active | AID 2717;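 active = mean at 75% or more and at least half the replicates too; tested in HMLE shEcad cells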;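 note: 0% = median of negative and 100% = median of positive control wells; the first replicate is given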
MT1-MMP act inh RFP = also measured in MT1-MMP act inh; calls as there; RFP signal change, %; measured here: RFP expression control read;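 0 = vehicle wells; hits needed this value within 50% of zero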
Starred values were filed as active, the others as inactive; i = inactive; . = no result given; & = joins results of further samples; [ ] = another dose, or the depositor's remark. Not all compounds are listed; count on the stated rates, not on these rows.

Below each SMILES – Rce1 inhib	Yeast UUG start	eIF4H FP inh	HIV Env fusion	MT1-MMP act inh	MT1-MMP act inh RFP	PABP FP inh	CSC inhib
> Cc1ccc(S(=O)(=O)CC(=O)Nc2nnc(C(C)(C)C)s2)cc1
→ i	-6	9	16	6	1	22	-1
> CCn1c(COc2ccccc2)nnc1SCC(=O)Nc1cc(C)ccc1OC
→ i	-8	-2	.	1	-5	-6	-6
> CN1C[C@H](C(=O)NC2(C)OC3(O)[C@@H]4CCCN4C(=O)[C@H](Cc4ccccc4)N3C2=O)CC2c3cccc4[nH]cc(c34)C[C@H]21 (some centres not stated)
→ i	7	.	-89	-1	5	.	-5
> CC(C)Nc1nc(Cl)nc(NN(C)c2nc(N(C)C)nc(N(C)C)n2)n1
→ i	-11	-4	4	-5	-4	-4	-2
> O=C(NCc1n[nH]c(=S)n1-c1ccccc1)c1ccc(S(=O)(=O)N2CCOCC2)cc1
→ i	-20	-1	-63	2	3	-5	7
> CCO/C(C)=N/Oc1cnc2ccccc2c1
→ .	-2	.	-18	2	-2	.	.
> CCOc1ncccc1C(=O)OCC(=O)NCc1ccccc1
→ .	-7	.	8	1	-3	.	-8
> C=C(C)CNC(=O)C1CCC(=O)N(CCCc2ccccc2)C1 (configuration not stated)
→ i	6	.	14	-2	-1	.	-9
> O=C(c1ccc(Oc2ccccc2)cc1)c1nc2c(n1O)CCCC2
→ i	.	4	.	6	4	-5	8
> CC(=O)Nc1nonc1-c1nc2ccccc2n1CCC(C)C
→ i	-7	0	.	-8	-12	-8	-7
> O=C(Cn1cnc2ccccc2c1=O)OCCCCN1C(=O)c2ccccc2C1=O
→ i	-4	-12	-149	-3	-2	-9	-12
> CC1CC(=O)N(CC(=O)Nc2ccccc2F)c2ccccc2S1(=O)=O (configuration not stated)
→ i	-3	-9	1	0	3	3	-4
> C[C@@H]1CN([C@@H](C)CO)C(=O)c2cc(Br)cnc2O[C@H]1CN(C)C(=O)c1ccc2c(c1)OCO2
→ .	-15&9	.	-8[16.7 µM]	2	4	.	.
> Cc1ccc(NC(=O)Cn2c(=O)c(C)nc3ccccc32)cc1
→ i	.	-2	5	-1	-5	22	3
> Cn1c(=O)cc(SCC(=O)N2CCN(c3ccccc3)CC2)c2ccccc21
→ i	-4	-6	-26	-1	1	20	-8

Following part:
Below each SMILES – Rce1 inhib	Yeast UUG start	eIF4H FP inh	HIV Env fusion	MT1-MMP act inh	MT1-MMP act inh RFP	PABP FP inh	CSC inhib
> O=C(NCc1ccco1)C1CCN(c2nc3ccccc3n2Cc2ccc(F)cc2)CC1
→ i	-20	1	11	0	-3	2	-21
> Cc1c(C(=O)N2CCOCC2)sc(NC(=O)Cc2ccccc2)c1C#N
→ i	.	-8	3	3	5	1	-13
> O=C(c1ccc(COc2ccccc2Br)o1)N1CCN(c2ccccn2)CC1
→ i	-12	-8	-13	5	3	8	2
> COc1cccc(NC(=O)CCC2CCN(C(=O)Cc3cccc(F)c3)CC2)c1
→ i	13	-2	5	1	1	3	-3
> CCCCN(CC)C(=S)Nc1ccc2nc(N3CCN(C)CC3)cc(C)c2c1
→ i	-16	-4	0	0	-1	9	28
> Cc1ccc(S(=O)(=O)N2CC(=O)Nc3ccccc32)cc1C
→ i	-1	-3	.	1	1	-4	-13
> CCOC(=O)C1=C(C)NC(=O)NC1c1ccc(C)o1 (configuration not stated)
→ i	-15	0	-39	-2	1	-9	-9
> COCCCNCCCCOc1ccccc1-c1ccccc1
→ i	-7	0	10	5	-2	-4	13
> O=C1[C@H]2[C@@H](c3ccc(C(F)(F)F)cc3)N[C@]3(CCCN(Cc4ccccc4)C3=O)[C@H]2C(=O)N1Cc1ccccc1
→ .	3	.	-121	2	-4	.	.
> CC(=O)C1=C(C)OC(N)=C(C#N)C1c1cc2cccc(C)c2nc1Cl (configuration not stated)
→ i	-9	36	12	-3	7	10	-6
> Cc1ccc(OCC(=O)Nc2ccccc2C(N)=O)cc1
→ i	-16	-2	-44	-1	3	-4	-4
> O=C(NNC(=O)c1ccccc1F)c1cccc(-n2cccc2)c1
→ i	.	.	-49	-3	2	.	2
> C[C@H](CO)N1C[C@H](C)[C@@H](CN(C)S(=O)(=O)c2ccccc2)Oc2c(NC(=O)c3ccncc3)cccc2C1=O
→ .	-1&-3	.	-1[16.7 µM]	3	3	.	0
> O=[N+]([O-])c1ccc(NC(=S)NCCc2ccc(Cl)cc2)cc1
→ i	.	-9	.	-24	-40	-3	196*
> CCc1ccccc1NC1c2ccccc2C(=O)N1Cc1ccco1 (configuration not stated)
→ i	-16	-3	-1	-1	1	-3	-5

(list continues)
Below each SMILES – Rce1 inhib	Yeast UUG start	eIF4H FP inh	HIV Env fusion	MT1-MMP act inh	MT1-MMP act inh RFP	PABP FP inh	CSC inhib
> CCOCCn1c(SCc2cccc(C)c2)nc2c1c(=O)[nH]c(=O)n2C
→ i	12	-4	10	2	1	11	-6
> COc1cc(OC)c(C(=O)OC(C)C(=O)NCc2ccc3c(c2)OCO3)cc1OC (configuration not stated)
→ .	-3	.	-12	5	1	.	-12
> NS(=O)(=O)c1ccc(NC(=O)COC(=O)c2cc3ccccc3cc2O)cc1
→ i	-11	2	20	1	5	10	-24
> COc1ccc(-c2csc3ncnc(Cl)c23)cc1
→ i	-2	-6	20	-1	4	-10	3
> COCCNC(=O)c1cccc(OC2CCN(Cc3ccc(F)cc3OC)CC2)c1
→ i	-26	3	7	2	-3	0	-14
> O=C(Nc1cccc(NC(=O)c2c(F)cccc2F)n1)c1c(F)cccc1F
→ i	.	-8	22	2	4	-3	-22
> COc1ccc([N+](=O)[O-])cc1NC(=O)CN(C)S(=O)(=O)c1ccccc1
→ i	-11	-13	9	2	1	4	-11
> O=C(NCc1ccc2c(c1)OCO2)C1CC(=O)N(C2CCCCCCC2)C1 (configuration not stated)
→ i	-7	12	.	2	0	-4	0
> Cc1cc(C(=O)Cn2nnc3ccccc3c2=O)c(C)n1-c1ccccc1F
→ i	.	-8	.	10	0	-2	44
> COc1ccc(C)cc1NC(=O)COC(=O)c1c(C)noc1C
→ i	-2	-2	-17	8	2	-2	-11
> CCOC(=O)c1c(NC(=O)c2c(C)noc2C)sc2c1CCCCC2
→ i	3	-3	.	-2	-2	0	5
> CC1CCN(C(=O)COC(=O)C2CCN(S(=O)(=O)c3ccc(Cl)c(C(F)(F)F)c3)CC2)CC1
→ i	-6	.	.	-6	-2	.	-9
> CC(C)c1ccc(NC(=O)NC2(C(=O)NCc3cccnc3)CCCCC2)cc1
→ .	-18	-2	-1	1	2	2	-5
> O=C(Cn1nnc(-c2ccccc2NC(=O)c2ccco2)n1)Nc1ccccc1
→ i	-15	-9	.	6	-3	1	.
> Cc1nc2ccn(Cc3ccccc3)c(=O)c2cc1C(=O)N1CCN(c2ccccc2)CC1
→ i	-34	9	-1	1	2	2	-2

Following part
compound | Rce1 inhib | Yeast UUG start | eIF4H FP inh | HIV Env fusion | MT1-MMP act inh | MT1-MMP act inh RFP | PABP FP inh | CSC inhib
COc1cccc(NC(=O)CCNC(=O)N2CC(=O)Nc3ccccc32)c1 | i | -16 | -6 | -8 | 4 | 3 | -4 | -18
O=C(c1[nH]nc2c1CCc1ccccc1-2)N1CCN(Cc2ccc3c(c2)OCO3)CC1 | i | 0 | 3 | . | 9 | -28 | 3 | 10
O=C(c1ccc2c3n(nc2c1)-c1ccc(Cl)cc1CO3)N1CCCCC1 | i | 1 | -5 | -173 | 2 | -3 | 10 | 17
CCOc1ccc(C(=O)O)cn1 | i | -5 | 0 | . | 2 | 4 | 2 | -2
COc1cccc(-c2cnc(C(O)c3ccc(Cl)cc3C)[nH]2)c1 (configuration not stated) | . | -7 | . | 9 | 2 | -3 | . | .
COc1ccc(NC(=O)c2ccc(C)o2)c([N+](=O)[O-])c1 | i | . | 2 | -36 | 4 | 2 | -4 | 14
CCC(=O)Nc1ccc(C(=O)Nc2ccc(OC)cc2[N+](=O)[O-])cc1 | i | . | 4 | 31 | 7 | 8 | -4 | 7
Cc1ccc(NC(=O)c2ccccc2-c2ccc(C(F)(F)F)cc2)cc1S(=O)(=O)N1CCOCC1 | i | -9 | 0 | 28 | 16 | 1 | -7 | -2
CC(C)Oc1ccc(CNCC2(O)CCOC(C)(C)C2)cc1 (configuration not stated) | i | . | 17 | -70 | -3 | 0 | 10 | 15
CC(=O)Nc1ccc(CNc2ncnc3ccc(-c4c(C)noc4C)cc23)cc1 | . | -2 | . | 24 | 21 | 6 | . | 16
COC(=O)c1ccc(C2=NOC(C)(c3nnc(Cc4ccccc4)o3)C2)cc1 (configuration not stated) | i | -20 | . | -7 | 1 | -3 | . | 8
COc1ccc(C(=O)N2CCC(C(=O)Nc3ccc(C)cc3)CC2)cc1 | i | . | -10 | -3 | . | . | 15 | 6

The results go on.
compound | Rce1 inhib | Yeast UUG start | eIF4H FP inh | HIV Env fusion | MT1-MMP act inh | MT1-MMP act inh RFP | PABP FP inh | CSC inhib
O=C(N/C=C/n1cnc2cc(C(F)(F)F)ccc21)c1ccc(F)cc1 | . | -17 | . | 0 | -3 | 0 | . | .
Cc1cc(NC(=O)c2nn(C)c(C)c2[N+](=O)[O-])no1 | i | 1 | 2 | -11 | 5 | 6 | 2 | 13
COc1cccc(C(C(=O)NC(C)(C)C)N(Cc2ccco2)C(=O)CCC(=O)Nc2cc(C)on2)c1OC (configuration not stated) | i | . | -3 | 4 | -4 | -1 | 3 | -18
CS(=O)(=O)N(CC(=O)Nc1ccccc1-c1ccccc1)c1ccc(F)cc1 | i | . | 0 | -7 | -2 | 3 | -4 | -13

As a short view, six of the compounds above:
compound | Rce1 inhib | Yeast UUG start | eIF4H FP inh | HIV Env fusion | MT1-MMP act inh | MT1-MMP act inh RFP | PABP FP inh | CSC inhib
Cc1ccc(S(=O)(=O)CC(=O)Nc2nnc(C(C)(C)C)s2)cc1 | i | -6 | 9 | 16 | 6 | 1 | 22 | -1
CCn1c(COc2ccccc2)nnc1SCC(=O)Nc1cc(C)ccc1OC | i | -8 | -2 | . | 1 | -5 | -6 | -6
CN1C[C@H](C(=O)NC2(C)OC3(O)[C@@H]4CCCN4C(=O)[C@H](Cc4ccccc4)N3C2=O)CC2c3cccc4[nH]cc(c34)C[C@H]21 (some centres not stated) | i | 7 | . | -89 | -1 | 5 | . | -5
CC(C)Nc1nc(Cl)nc(NN(C)c2nc(N(C)C)nc(N(C)C)n2)n1 | i | -11 | -4 | 4 | -5 | -4 | -4 | -2
O=C(NCc1n[nH]c(=S)n1-c1ccccc1)c1ccc(S(=O)(=O)N2CCOCC2)cc1 | i | -20 | -1 | -63 | 2 | 3 | -5 | 7
CCO/C(C)=N/Oc1cnc2ccccc2c1 | . | -2 | . | -18 | 2 | -2 | . | .
